# VACV E9 pol inh: inhibitors of vaccinia virus processive DNA synthesis (E9 polymerase) | in vitro processive DNA synthesis, absorbance read-out; active compounds read low; some inactives read as strong as hits | normalized absorbance, % (test concentration not listed) | actives 0.94% (n = 46,000);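 active = replicate mean up to 90% and picked by the depositor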;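 note: 100% = median of the test wells of a plate; 100 nL library stock went into each well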
# Numbers without * were called inactive. Not all compounds are listed (hit frequency here may not be typical).
compound,VACV E9 pol inh
O=C1C(c2c(O)[nH]c3ccccc23)=Nc2ccccc21,100.9
COc1cccc(-c2nc3ccccc3c(=O)o2)c1,95.4
COc1ccc2c(=O)c(-c3csc(C)n3)coc2c1C,86.6
CCOC(=O)c1c(-c2ccc(Cl)cc2)nn2c1NCN(CCc1ccccc1)C2,105.5
Cc1ccc(C(=O)NCCN2CCCC2)cc1,99.9
CCc1ccc(Sc2cc(C(=O)NCc3cccnc3)c3ccccc3n2)cc1,94.2
CC(C)/C=N/N1C(N)=C(C#N)C(C#N)(C#N)C1C(C)C (stereo unspecified),99.6
CSc1nsc(SC)c1NC(=O)OCC1CCCO1 (stereo unspecified),99.7
O=C(Nc1cc(C(F)(F)F)cc(C(F)(F)F)c1)C12CC3CC(CC(C3)C1)C2,103.7
CC(=O)N1CCOc2cc(S(=O)(=O)NCC3CCC(C(=O)Nc4cccc(C)c4)CC3)ccc21 (stereo unspecified),105.4
CC(CN(C)Cc1ccccc1)OC(=O)c1cc2ccccc2o1 (stereo unspecified),95.2
CC(Nc1ccc(Br)cc1)C(=O)Nc1cccc(Cl)c1Cl (stereo unspecified),97.7
N#C/C(=C\Nc1ccc(F)c(Cl)c1)S(=O)(=O)Cc1ccco1,80.8
c1ccc2sc(SCCCN3CCCCC3)nc2c1,99.0
COc1ccc(OCC(=O)NC2CCCCC2)cc1,91.3
O=C(COC(=O)Cc1cccc(C(F)(F)F)c1)Nc1ccccc1,104.3
CC(C)C(=O)Nc1ccc(Cl)cc1,103.9
CCCC1=NN(C(=O)/C=C/c2cccs2)C(=O)C1Cc1c(F)cccc1Cl (stereo unspecified),94.3
CCn1c(C)nc2c(=O)oc3ccccc3c21,99.8
CCOc1nc(S(=O)(=O)c2ccc(C)cc2)c(Cl)s1,99.5
Cc1cc(NS(=O)(=O)c2ccccc2)cc(S(=O)(=O)c2ccccc2)c1O,100.7
OC(CNCC1COc2ccccc2O1)c1ccccc1 (stereo unspecified),118.1
CCN(C(=O)c1ccc(C(=O)N(CC)c2ccccc2)cc1)c1ccccc1,100.1
CC(=O)Nc1cc2nn(-c3ccccc3)nc2cc1C,96.7
CC1(C)c2ccccc2N(CCC(N)=O)C12C=Cc1c(ccc3ccccc13)O2 (stereo unspecified),93.7
CCCN(CCC)C(=O)CSc1nc2ccsc2c(=O)n1-c1ccc(Br)cc1,101.1
CSC1=N/C(=C\c2ccccc2Cl)C(=O)N1,102.7
CC(=O)Nc1cc(C(=O)NCCc2ccc(C)cc2)ccc1Sc1ccc(C)cc1,106.1
O=C(NC(=S)Nc1cccc(C(F)(F)F)c1)c1ccccc1,86.4
COc1ccc(OC)c(CCNC(=O)Cn2cccc2C(=O)c2ccccc2)c1,94.0
CC1=C(C(N)=O)C(c2ccco2)C(C(N)=O)=C(C)N1,101.2
Cc1cc(C)c(-n2cccc2CN)c(C)c1,100.1
Cc1ccc2oc(=O)c3cnn(CC(=O)NC(C)C)c3c2c1,102.7
CCN1C=C(C(=O)OC)C(c2cc3c(cc2Br)OCO3)C(C(=O)OC)=C1,99.3
Cc1ccc(-c2cn3cccc(C)c3n2)cc1,97.0
CC1CCc2c(sc(N)c2C(=O)Nc2ccc(Cl)cc2)C1 (stereo unspecified),100.6
COc1cccc(C(=O)N2CCCCC2C)c1 (stereo unspecified),100.7
CC1=C(C)C(=O)C(CCCCC#CCCCC#CCO)=C(C)C1=O,101.2
N#Cc1ccc(C=Nc2cccc3c(N=Cc4ccc(C#N)cc4)cccc23)cc1,99.4
Cc1cc(C(=O)NCC2CCN(C3CCCC3)C2)nc2c1c(C)nn2-c1ccccc1Cl (stereo unspecified),106.4
COc1ccc(OC)c(S(=O)(=O)N2CC(C)OC(C)C2)c1 (stereo unspecified),95.7
CCC(=O)c1c[nH]c(C(=O)NCCCn2ccnc2)c1,108.7
CC1(C)CC2CC(C)(CN2C(=O)COC(=O)c2ccc(Cl)c(N)c2)C1 (stereo unspecified),89.0
COc1ccc(NC(=O)Nc2ccc3c(c2)C(=O)OC3)cc1,99.8
Cc1c(Cl)ccc(S(=O)(=O)Nc2ccncc2)c1Cl,101.1
CCN1CCSc2ccc(C(=O)NCCCN3CCCCC3)cc21,101.4
O=C(CSc1ncnc2c1oc1ccccc12)OCc1ccccc1,103.4
Clc1ccccc1-c1cc(-c2nnco2)c2ccccc2n1,104.1
CC1CCN(C(=O)C23CC4CC(CC(C4)C2)C3)CC1,101.7
CCN1C(=O)c2ccccc2S(=O)c2ccc(C(=O)N3CCCCC3)cc21 (stereo unspecified),82.8
Cc1sc(NC(=O)CN2CCN(c3ccccc3)CC2)c(C#N)c1C,93.6
Cc1cccc(NC(=O)CNS(=O)(=O)c2ccc(Br)s2)c1,102.5
O=C(NC(NCc1ccccn1)(C(F)(F)F)C(F)(F)F)c1cccnc1,76.4
COC(=O)c1ccccc1NC(=O)CCn1cccc1,90.0
O=C(NC(=O)c1ccccc1C(F)(F)F)NN1CCCCC1,100.2
NC(=O)c1cc2c(n(-c3ccccc3)c1=O)CCCC2=O,100.2
C=CCNC(=S)N1N=C2c3ccccc3CCC2C1c1ccccc1Cl (stereo unspecified),103.7
CO[C@@H]1O[C@H](COC(=O)c2ccccc2)[C@H](OC(=O)c2ccccc2)[C@H]1OC(=O)c1ccccc1,99.8
CC(C)(O)C#Cc1ccc(C(=O)NCC(c2ccccc2)c2ccccc2)cc1,100.2
Cc1ccc2c(Cl)cc(Cl)c(OCC(=O)N(C)Cc3ccccc3)c2n1,99.6

# (continued)
compound,VACV E9 pol inh
Cc1cccc(NC(=O)CCN2C(=O)/C(=C\c3ccccc3)SC2=S)c1,99.8
CN(C)c1ccc(/C=N/N)cc1,97.2
FC(F)(F)Oc1ccc(C2c3ccsc3CCN2Cc2ccc3c(c2)CCO3)cc1 (stereo unspecified),117.5
CC12CC3(C)CC(CN)(C1)CC(CCN)(C2)C3,99.3
Cc1ccc2c(c1)N(C(=O)CCC(=O)N1CCC3(CC1)OCCO3)CC(C)O2 (stereo unspecified),98.0
CCSc1nnc(NC(=O)CSc2nnc(Cc3cccn3C)n2-c2ccc(F)cc2)s1,99.1
CCOC(=O)c1c(NC(=S)Nc2ccc(OC)cc2)sc2c1CC(C(C)C)OC2 (stereo unspecified),100.7
COc1ccc(-n2c(SC)nnc2-c2ccc(OC)c(OC)c2)cc1,104.7
O=C(O)c1cc(-c2ccc(O)cc2)on1,99.9
COc1ccc(Nc2nc(=S)[nH]c3cc(OC)c(OC)cc23)cc1,98.8
CC1CCN(CC(O)Cn2c3ccccc3c3ccccc32)CC1 (stereo unspecified),95.9
CCCCC1CCC(C(=O)Nc2c3c(nn2-c2ccc(F)cc2)CS(=O)(=O)C3)CC1 (stereo unspecified),93.6
CCOC(=O)c1c(C)c2c(n1C)CCC/C2=N\O,99.7
Cc1cccnc1NC1CCCCC1,101.2
O=C(c1ccco1)N1CCN(C(=O)C2CC(c3ccc(Cl)cc3)=NO2)CC1 (stereo unspecified),98.0
CC(C)c1cc(C(=O)N2CCN(C(c3ccccc3)c3ccccc3)CC2)no1,101.3
CN(C)C(=O)Oc1ccc(Br)cc1C(=O)Nc1ccc(F)cc1F,96.4
CCOC(=O)c1sc2ncn(/N=C/c3ccc4c(c3)OCCO4)c(=O)c2c1C,101.3
Cc1nn(-c2ccccc2)nc1C(=O)NC(=O)N1CCSCC1,106.3
O=c1oc2c(-c3ccc(Cl)cc3Cl)cc(O)cc2s1,95.4
Cn1cnc2cc(NCc3ccccn3)ccc21,109.3
Cc1[nH]c2ccccc2c1C(OC(C)C)c1ccccn1 (stereo unspecified),102.8
CCOc1ccc(NC2=NC(C(=O)NCc3ccccc3)CC(=O)N2)cc1 (stereo unspecified),90.8
Cc1ccc(S(=O)(=O)Nc2ccc(S(=O)(=O)Nc3nccc(C)n3)cc2)cc1,98.7

# Arranged by formula weight (smallest number first): 4 of the compounds above.
compound,VACV E9 pol inh
Cc1nn(-c2ccccc2)nc1C(=O)NC(=O)N1CCSCC1,106.3
O=C(c1ccco1)N1CCN(C(=O)C2CC(c3ccc(Cl)cc3)=NO2)CC1 (stereo unspecified),98.0
CCOC(=O)c1sc2ncn(/N=C/c3ccc4c(c3)OCCO4)c(=O)c2c1C,101.3
Cc1ccc(S(=O)(=O)Nc2ccc(S(=O)(=O)Nc3nccc(C)n3)cc2)cc1,98.7

# Further structures follow.
compound,VACV E9 pol inh
Cc1cccc(NS(=O)(=O)c2c(C)n[nH]c2C)c1,99.0
CCOc1ccccc1NC(=O)CSc1ccc(C)cc1,101.4
Nc1nc2ccccc2n1CCOc1ccccc1,97.4
CCC(Sc1nc2ncccc2[nH]1)C(=O)NCc1ccco1 (stereo unspecified),111.8
COc1ccc(C(C#N)N2CCC(c3ccccc3)=N2)cc1 (stereo unspecified),98.2
CCOC(=O)c1cc(-c2ccc(C)cc2)n(CC(=O)NCC2COc3ccccc3O2)c1C (stereo unspecified),99.8
O=C(COc1cc2oc(=O)cc(-c3ccccc3)c2cc1Cl)NC1CC1,99.7
CCOC(=O)CC1C(=O)C=Nc2ccccc21 (stereo unspecified),105.7
COc1ccc(C2=NN(CC(=O)Nc3cc(C)ccc3C)C(=O)CC2)cc1,90.5
COc1ccc(/C=C2\Oc3ccccc3N(CC(=O)N3CCOCC3)C2=O)cc1,83.2
CCC(C)NC(=O)c1cc2c(=O)n(CC)c3ccccc3c2s1 (stereo unspecified),97.3
CC(=O)Nc1ccc(NC(=O)Cn2cnc3c(oc4ccccc43)c2=O)cc1,100.5
CCOc1ccccc1N(C)C(=O)c1cc2c(=O)n(CC)c3ccccc3c2s1,88.3
O=C(O)c1ccc2c(c1)C1C3CCC(C3)C1C(c1ccccc1)N2 (stereo unspecified),98.7
Cc1ccc(C)c(CN2C(=O)C(C(C)C(=O)NCCc3ccc(Cl)cc3)Sc3ccccc32)c1 (stereo unspecified),99.8
O=C(NC1CCCCCCC1)c1nnc(-c2cccc(Cl)c2)o1,95.0
O=C(Oc1ccc(Cl)c(Cl)c1)c1ccccc1F,96.5
Cc1onc(-c2ccccc2)c1-c1csc(Nc2ccccc2Cl)n1,100.8
COc1ccc(C(=O)OC2CCCCC2CN(C)C)cc1 (stereo unspecified),81.6
Cc1nc(-c2ccc(N=Cc3cc(Br)ccc3O)cc2)cs1,100.5
c1ccc2oc(CCCc3nc4ccccc4o3)nc2c1,99.6
Nc1ccccc1SCc1cn2ccccc2n1,99.7
COc1ccc(C(=O)CC(C#Cc2ccccc2)CC(=O)c2ccc(OC)cc2)cc1,101.1
O=C(Nc1ccccc1Cl)c1cc2c(s1)CCC2,99.9
COc1ccc(-n2nnnc2-c2nc3ccccc3s2)cc1,99.0
CCc1c(O)nc2ccccn2c1=O,104.9
O=c1c(Cl)c(N2CCN(c3ccccc3)CC2)cnn1-c1ccccc1,99.9
O=C1OC(COc2ccccc2)CN1c1ccccc1 (stereo unspecified),103.4
CCC(NS(=O)(=O)c1ccc(OC)cc1)C(=O)NCc1ccccc1OC (stereo unspecified),101.3
Nc1ncnc2c1ncn2CCN1CCCCC1,100.5
CN(C)c1ccc(C=Nc2ccc3c(c2)ncn3C(C)(C)C)cc1,102.7
COc1ccc(C2NC(=O)c3[nH]nc(-c4cccc(OC)c4)c32)cc1 (stereo unspecified),107.2
O=C(O)c1ccccc1C(=O)N1CCN(C2c3ccccc3-c3ccccc32)CC1,73.6*
CC(=O)N1NC(c2ccccc2)CC1c1ccccc1 (stereo unspecified),100.3
Cc1cccc(N(C)C(=O)/C=C/C(=O)O)c1,107.6
CN1C(=O)C[n+]2ccccc2C1C(=O)Nc1ccccc1 (stereo unspecified),104.3
O=C1c2ccccc2C(=O)N1CCC12CC3CC(CC(C3)C1)C2,100.0
Cc1ccc(NC(=O)C(NC(=O)c2ccccc2)C(C)C)cc1 (stereo unspecified),104.7
Ic1ccccc1/C=N/n1cnnc1,102.6
O=C(COC(=O)c1cc(-c2ccccc2)nc2ccccc12)NC1CC1,97.2
CCN(C(=O)c1cc2c(s1)-c1ccccc1SC2)c1ccccc1,103.1
O=C(Nc1csc(Cc2c(Cl)cccc2Cl)n1)NN1CCOCC1,100.8
O=C(O)c1ccccc1C1SCC(=O)N1NC(=S)Nc1ccccc1 (stereo unspecified),97.0
O=C(Oc1ccc(Br)cc1)c1ccco1,99.2
CC(C)(C)c1ccc(NC(=O)CSc2nnnn2-c2ccccc2)cc1,99.3
CC1CCCC(NS(=O)(=O)c2ccc3[nH]c4c(c3c2)CCCC4)C1C (stereo unspecified),99.1
Cc1cc2cc(CNC(=O)C3CCCC3)ccc2n1C,101.3
Cc1onc(-c2ccccc2)c1C(=O)NCC1COc2ccccc2O1 (stereo unspecified),97.4
CC1=C(C(=O)OCc2ccc(C)cc2)C(c2cc3c(cc2Br)OCO3)CC(=O)N1 (stereo unspecified),102.6
CCOC(=O)c1c(C)oc2ccc(OC(=O)c3ccco3)cc12,99.5
c1ccc(-c2nnc(COc3ccc4ccccc4c3)o2)cc1,100.4
CCn1c(=O)n(CC)c2cc(S(=O)(=O)NC3CCCCC3)ccc21,98.5
CC1(C)CC(=O)c2sc(NC(=O)CCSc3ccccc3)nc2C1,98.4
CCOC(=O)C1=NN(c2ccc(OC)cc2)C(c2ccccc2)CC1=O (stereo unspecified),101.0
FC(F)(F)c1cccc(-c2ccc3ccccc3n2)c1,91.2
c1ccc(C2C3=C(Nc4ncnn42)c2ccccc2CCC3)cc1 (stereo unspecified),99.1
CCC(=O)Nc1cccc(NC(=O)c2cc3ccccc3o2)c1,102.5
COc1ccc(CCCC(=O)O)cc1,100.9
CC(NC(=O)c1cccc(S(=O)(=O)N(C)C)c1)c1ccccc1 (stereo unspecified),101.7
C=CCc1c(C)nc(SC)nc1Nc1ccccc1,94.5

# Assay outcomes: PubChem, ICCB-Longwood Screening Facility, Harvard Medical School
